# FGF22 binding = binders of human FGF22 protein, primary screen, FGF22 synaptogenesis inhibitor project, biophysical, thermal shift, single point; Fibroblast growth factor 22 (Homo sapiens), Q9HCT0; recombinant FGF22 thermal shift, SYPRO orange fluorescence; percent of sucrose octasulfate shift, DMSO zero; calls only at 9.99 µM; hit rate 1.5% among 340,000; AID 651658, 2012;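 active = melting point raised past a set limit in the mean and every replicate; inconclusive = no clear call; three in four hits are not shown here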
# Target sequence (Q9HCT0 whole entry, looked up): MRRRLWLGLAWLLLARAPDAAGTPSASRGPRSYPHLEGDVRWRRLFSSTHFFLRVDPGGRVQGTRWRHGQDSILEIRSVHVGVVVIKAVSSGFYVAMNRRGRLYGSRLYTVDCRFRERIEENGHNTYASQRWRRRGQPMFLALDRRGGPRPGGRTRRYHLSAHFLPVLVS
# AF4-AF9 inh = inhibitors of AF4 peptide binding to AF9, primary screen, biochemical, AlphaScreen, biotin-AF4 peptide, FLAG-AF9, single point; Protein AF-9 (Homo sapiens), P42568; hit rate 0.47% among 350,000; inhibition, % at 10 µM;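 active = every replicate reaching a set inhibition limit, whatever the replicate mean, cut at about 25% in these data; inconclusive = mean inhibition reaches that limit but some replicates miss it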;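 note: 0% = plate neutral control median and 100% = total signal loss; the record names both 10 and 1 µM as test concentration; the first replicate is given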
# Target sequence (P42568 whole entry, looked up): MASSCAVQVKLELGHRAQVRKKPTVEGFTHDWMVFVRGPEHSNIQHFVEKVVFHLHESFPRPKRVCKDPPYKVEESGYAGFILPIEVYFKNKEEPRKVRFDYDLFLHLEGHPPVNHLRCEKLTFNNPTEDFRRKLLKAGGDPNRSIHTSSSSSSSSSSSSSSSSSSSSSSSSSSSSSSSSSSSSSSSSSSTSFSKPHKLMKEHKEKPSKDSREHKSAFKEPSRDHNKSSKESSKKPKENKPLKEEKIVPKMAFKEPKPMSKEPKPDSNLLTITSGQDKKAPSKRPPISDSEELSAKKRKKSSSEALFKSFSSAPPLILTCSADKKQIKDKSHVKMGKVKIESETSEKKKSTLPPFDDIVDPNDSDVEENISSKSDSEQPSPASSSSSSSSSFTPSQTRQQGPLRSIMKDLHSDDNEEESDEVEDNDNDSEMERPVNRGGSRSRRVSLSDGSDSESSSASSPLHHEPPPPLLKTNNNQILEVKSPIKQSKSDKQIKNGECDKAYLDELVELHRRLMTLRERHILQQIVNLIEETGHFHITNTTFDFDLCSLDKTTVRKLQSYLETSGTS
# rRNA inh HTS = reduced GFP signal of wild-type E. coli, primary screen, bacterial rRNA inhibitor project, GFP/RFP fluorescence, OD600, single point. E. coli WT GFP vs humanized-ribosome RFP mutants, 24 h; stronger effect = lower value; DMSO median 0, no signal -100. GFP signal change (wild-type ribosome), % (no concentration beside the values). hit rate 1.6% among 350,000. AID 720706, 2013;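 active = significant combined selectivity score with lowered wild-type GFP, culture density cut under 30%, mutant RFP and density less affected; inactive = any of these conditions unmet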; note: one replicate is shown; some compounds called inactive have numbers as strong as hits
# rRNA inh HTS OD600 = also measured in rRNA inh HTS; calls as there; OD600 change, %; measured here: OD600 growth;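 optical density of the mix in the first replicate; 0 = DMSO median and -100 = no signal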
# rRNA inh HTS RFP = further read-out of rRNA inh HTS, marked with its call; RFP signal change, %; measured here: RFP humanized mutant strains;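 first replicate; 0 = DMSO median and -100 = no signal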
# The depositor's hits bear a star; i = inactive; u = inconclusive; x = not tested or not shown; & = joins results of further samples.
SMILES,FGF22 binding,AF4-AF9 inh,rRNA inh HTS,rRNA inh HTS OD600,rRNA inh HTS RFP
Cc1ccc(S(=O)(=O)N(C)C[C@@H]2Oc3ccc(NC(=O)Nc4ccc5c(c4)OCO5)cc3C(=O)N([C@@H](C)CO)C[C@@H]2C)cc1,i,7.5,-3.0,-7.3,-0.3
CN[C@H](C)C(=O)NC[C@H]1O[C@@H](n2ccc(N)nc2=O)[C@H](O)[C@@H]1O,i,-2.3,2.9,10.7,-7.2
Cc1cccc(C2=NN(c3ccccc3)[C@@H](C(=O)N3CCOC3=O)[C@@H]2c2ccccc2)c1,i,6.1,34.5,14.5,0.1
N#C[C@H]1[C@@H](c2ccc(C#Cc3ccccc3F)cc2)[C@@H](CO)N1C(=O)C1CC1,i,1.6,-19.1,-39.5,1.1
C[C@H]1CN([C@@H](C)CO)C(=O)c2cccc(NC(=O)Nc3ccccc3)c2O[C@H]1CN(C)S(C)(=O)=O,i,-2.5,4.3,2.6,0.1
COc1ccc2c3c(n(C)c2c1)[C@@H](CO)N(CC1CCOCC1)CC31CCN(C(C)=O)CC1,i,1.3,9.2,9.5,0.1
Cc1noc(C)c1NC(=O)N[C@@H]1CC[C@@H](CC(=O)NCc2ccc(Cl)c(Cl)c2)O[C@@H]1CO,i,0.8,-0.6,-2.9,-1.2
COc1ccc([C@H]2N[C@]3(CCCN(Cc4ccccc4)C3=O)[C@H]3C(=O)N(C)C(=O)[C@@H]23)cc1,i,-1.6,3.9,8.2,-1.9
C[C@H](CO)N1C[C@H](C)[C@@H](CN(C)C(=O)CN2CCOCC2)Oc2cc(/C=C/c3ccccc3)ccc2S1(=O)=O,i,7.7,-5.5,-6.1,-1.0
C[C@@H]1CN([C@H](C)CO)C(=O)c2cc(NS(=O)(=O)c3ccccc3)ccc2O[C@H]1CN(C)Cc1ccc2c(c1)OCO2,i,0.1,0.3,-3.2,-0.9
CCc1cnc(N2[C@H](C#N)[C@@H](c3ccc(C#CC(C)C)cc3)[C@@H]2CO)s1,i,7.3,-1.6,0.7,-1.7
COc1ccccc1CNC(=O)C[C@H]1C[C@@H]2c3cc(NS(=O)(=O)c4ccc(F)cc4)ccc3O[C@@H]2[C@@H](CO)O1,i,-0.5,-4.7,-21.9,-0.7
Cc1sc2nc(CSCC(=O)Nc3ccc(Cl)cc3F)[nH]c(=O)c2c1C,i,-1.1,10.2,7.8,-1.7
CCCNC(=O)N(C)C[C@@H]1Oc2ncc(C#CC3CC3)cc2C(=O)N([C@@H](C)CO)C[C@@H]1C,i,-4.8,0.4,-0.4,-1.8
C[C@@H]1CN([C@H](C)CO)S(=O)(=O)c2ccc(C#CC3(O)CCCC3)cc2O[C@@H]1CN(C)C,i,0.3,1.4,-0.6,-1.9
O=S1(=O)c2ccc(Br)cc2OCCC2CCCCN21 (configuration not stated),i,0.3,-20.6*,-7.3*,1.3*
CCCCN1CC(COCc2ccccc2)OCCS1(=O)=O (configuration not stated),i,-0.8,-6.0,-15.5,0.9
CCN=C1NC(CCc2ccccc2)C(C(=O)OC)=C(C)N1Cc1ccccc1C(F)(F)F (configuration not stated),x,-0.6,-57.5,-78.7,-13.8
CC(C)C#Cc1cnc2c(c1)C(=O)N([C@H](C)CO)C[C@@H](C)[C@H](CN(C)C(=O)c1cccc(F)c1)O2,i,-0.5,4.4,6.3,-1.8
COc1ccc(NC(=O)Nc2ccc3c(c2)CC(=O)N([C@H](C)CO)C[C@H](C)[C@@H](CN(C)S(=O)(=O)c2ccc(F)cc2)O3)cc1,i,5.2,-4.4,-3.6,-5.0
O=C(CN1CCOCC1)NCC[C@H]1CC[C@@H](NC(=O)c2ccccc2F)[C@H](CO)O1,i,-1.0,4.5,4.0,-1.7
Cc1ccc([C@H]2N[C@]3(CCCN(Cc4ccc(C(F)(F)F)cc4)C3=O)[C@H]3C(=O)N(C)C(=O)[C@@H]23)cc1,i,0.0,-2.5,-13.3,4.5
Cc1cc2c(c(=O)o1)[C@@]1(C(=O)N(C)c3cccc(Br)c31)C1=C(CCCC1=O)O2,i,-3.4,6.1,13.8,-1.9
CC(=O)N(C)C[C@@H]1Oc2ncc(-c3ccccc3F)cc2C(=O)N([C@H](C)CO)C[C@@H]1C,i,-1.8,0.4,4.9,-1.7
Cc1cccc(N(CC(=O)N2CCCC2)S(C)(=O)=O)c1C,i,3.3,6.3,19.6,-1.8
Cc1ccc(CN2CCN(C(=O)/C=C/[C@H]3O[C@@H](n4cc(C)c(=O)[nH]c4=O)C[C@@H]3O)CC2)cc1,i,-2.9,-5.1,-2.0,0.0
CO[C@@H]1CN(C)C(=O)c2ccc(NC(=O)c3cccc(F)c3)cc2OC[C@@H](C)N(CC2CC2)C[C@H]1C,i,0.1,-0.7,-1.3,-2.5
CCC(=O)N[C@@H]1CC[C@H](CCNS(=O)(=O)c2ccc(Cl)cc2)O[C@@H]1CO,i,-1.8,0.2,6.6,-2.9
C[C@H](CO)N1C[C@H](C)[C@@H](CN(C)S(=O)(=O)c2ccc(Cl)cc2)Oc2ccc(NS(=O)(=O)c3cccs3)cc2CC1=O,i,2.0,-3.8,-15.4,2.4
COCC(=O)Nc1ccc2c(c1)C(=O)N(C)C[C@H](OC)[C@H](C)CN(C(=O)c1ccccc1F)[C@H](C)CO2,i,-1.0,-1.1,-3.5,0.5
CN1CCN(C(=O)c2cc3c(c(-c4cccc(-c5cc6ccccc6o5)c4)n2)[C@@H](CCO)N(S(=O)C(C)(C)C)C3)CC1 (some centres not stated),i,7.5,-9.5,-2.1,1.4
Cc1noc(C)c1NC(=O)N(C)C[C@H]1Oc2c(NS(=O)(=O)c3ccc(Cl)cc3)cccc2C(=O)N([C@@H](C)CO)C[C@H]1C,i,-2.3,0.0,-3.6,-1.4
O=C(N[C@@H]1CC[C@H](CCn2cc(-c3ccccc3F)nn2)O[C@@H]1CO)c1ccc2c(c1)OCO2,i,-19.5,-5.8,-13.2,-3.0
COc1ccc(NC(=O)Nc2ccc3c(c2)C(=O)N([C@H](C)CO)C[C@H](C)[C@H](CN(C)S(=O)(=O)c2ccccc2)OCCCC[C@@H](C)O3)cc1,i,2.4,-0.9,2.0,1.9
C[C@@H]1CN([C@H](C)CO)C(=O)Cc2cc(NC(=O)C3CCCCC3)ccc2O[C@@H]1CN(C)S(=O)(=O)c1cccs1,i,1.0,-4.4,-9.3,3.6
COc1ccccc1NC(=O)N1C[C@@H](O)COC[C@@H]2O[C@H](CC(=O)NCCc3ccncc3)CC[C@H]21,i,-0.6,1.1,5.2,-0.8
O=C(NCC[C@H]1CC[C@H](NC(=O)C2CCC2)[C@@H](CO)O1)c1cnccn1,i,-4.1,-1.5,6.9,-3.4
N#C[C@@H]1[C@H](c2ccccc2-c2ccc(F)cc2)[C@@H](CO)N1C(=O)Cc1ccccc1,i,-2.6,-21.9,-52.2,-1.2
COCCNc1nc(Nc2ccc(Cl)cc2F)c2sccc2n1,i,-1.2,-6.1,-49.5,19.6
O=C(C[C@@H]1CC[C@@H]2[C@H](COC[C@H](O)CN2Cc2cccc(Cl)c2)O1)NCc1cccc(F)c1,i,1.8,-11.9,-15.0,-2.1
Cc1ccccc1S(=O)(=O)NCC[C@@H]1CC[C@@H](NC(=O)C2CCOCC2)[C@@H](CO)O1,i,-2.1,1.6,-1.5,-0.7
CN(C)C(=O)C[C@H]1CC[C@H]2[C@@H](COC[C@H](O)CN2Cc2ccc(C(F)(F)F)cc2)O1,i,-1.5,-1.9,-5.3,-7.5
C[C@@H]1CN([C@@H](C)CO)C(=O)c2cc(NC(=O)Nc3ccc(F)cc3)ccc2O[C@H]1CN(C)C,i,-0.5,6.5,-6.5,2.0
Cc1ccccc1Nc1nc(N)nc(COC(=O)c2nn(C)c(=O)c3ccccc23)n1,i,1.2,-1.0,-5.2,4.0
COc1cccc(NC(=O)C(C)Sc2nnc(C3CC3)n2C2CC2)c1 (configuration not stated),i,-8.1,5.5,4.3,2.3

# Continued, overlapping the part above by 4 compounds.
SMILES,FGF22 binding,AF4-AF9 inh,rRNA inh HTS,rRNA inh HTS OD600,rRNA inh HTS RFP
CN(C)C(=O)C[C@H]1CC[C@H]2[C@@H](COC[C@H](O)CN2Cc2ccc(C(F)(F)F)cc2)O1,i,-1.5,-1.9,-5.3,-7.5
C[C@@H]1CN([C@@H](C)CO)C(=O)c2cc(NC(=O)Nc3ccc(F)cc3)ccc2O[C@H]1CN(C)C,i,-0.5,6.5,-6.5,2.0
Cc1ccccc1Nc1nc(N)nc(COC(=O)c2nn(C)c(=O)c3ccccc23)n1,i,1.2,-1.0,-5.2,4.0
COc1cccc(NC(=O)C(C)Sc2nnc(C3CC3)n2C2CC2)c1 (configuration not stated),i,-8.1,5.5,4.3,2.3
COc1ccc2c3c(n(C)c2c1)[C@H](CO)N(C(=O)C1CCCC1)CC31CN(Cc2cccc(F)c2)C1,i,u,-54.9,-75.1,-13.1
C[C@@H]1CN([C@H](C)CO)C(=O)Cc2cc(NS(=O)(=O)c3ccc(Cl)cc3)ccc2O[C@H]1CN(C)S(=O)(=O)c1cn(C)cn1,i,-1.2,0.0,3.5,-0.3
O=C1NN(c2ccccc2)C(=O)C1=Cc1ccccc1,i,-0.3,-1.2,5.2,-1.0
COc1ccc(S(=O)(=O)NC(=O)C2(C)CCN2C(=O)c2cccc(F)c2)cc1 (configuration not stated),i,-5.1,5.7,17.5,-10.0
Cc1ccc(S(=O)(=O)Nc2ccc3c(c2)C(=O)N([C@H](C)CO)C[C@@H](C)[C@@H](CN(C)Cc2ccc(-c4ccccc4)cc2)O3)cc1,i,0.9,-0.1,7.4,3.1
CN(C)C(=O)c1cccc(-c2ccccc2[C@H]2[C@H](C#N)N(C(=O)C3CC3)[C@H]2CO)c1,i,-0.3,4.8,11.2,-3.3
CO[C@H]1CN(C)C(=O)c2ccc(NS(C)(=O)=O)cc2OC[C@@H](C)NC[C@H]1C,i,-2.7,1.5,-2.0,-2.4
COc1ccccc1C(=O)N1C[C@H]2[C@@H](c3ccccc31)[C@H](CO)N2C(=O)C1CCOCC1,i,-3.0,-2.1,14.7,-2.4
CN(C)C(=O)[C@@H]1[C@@H](CO)[C@@H]2Cn3c(ccc(C4=CCCCC4)c3=O)[C@H]1N2Cc1ccccc1F,i,0.4,-3.2,-4.5,-2.1
CCN1[C@H](C(=O)N(C)C)[C@@H](CO)[C@@H]2Cn3c(ccc(-c4cccc(C(=O)N(C)C)c4)c3=O)[C@@H]21,i,0.4,1.4,7.6,-1.4
O=C(CCNC(=O)c1ccccc1)NC1CCCc2ccccc21 (configuration not stated),i,-0.7,3.2,8.2,1.9
O=C(CCN1CCCCC1)N[C@H]1CC[C@@H](CC(=O)N2CCC(Cc3ccccc3)CC2)O[C@H]1CO,i,3.0,4.0,5.9,0.1
C[C@@H]1CCCCO[C@H](CN(C)C(=O)Nc2ccccc2)[C@@H](C)CN([C@@H](C)CO)C(=O)c2cc(NS(=O)(=O)c3ccc(Cl)cc3)ccc2O1,i,-1.3,3.8,4.8,1.7
O=C(Nc1ccc(Cl)cc1)N[C@@H]1CC[C@@H](CCn2cc(Cc3ccccc3)nn2)O[C@@H]1CO,i,0.1,-2.6,-12.6,-1.6
COC(=O)c1ccc2nc(-c3ccc(Cl)cc3)c(CC3CCCCC3)n2c1,i,0.3,-4.9,-11.4,41.5
CCNC(=O)C1CCCN(C(=O)c2ccccc2OC(F)(F)F)CC1 (configuration not stated),i,-1.4,11.6,27.1,0.1
COc1ccc(CNC(=O)C[C@H]2C[C@H](C(=O)N3CCOCC3)[C@@]3(C)c4[nH]c5ccc(Cl)cc5c4CCN3C2=O)cc1OC,i,4.7,0.7,-10.8,-1.0
C[C@H](CO)N1C[C@H](C)[C@@H](CN(C)S(C)(=O)=O)Oc2ccc(NS(=O)(=O)c3cn(C)cn3)cc2C1=O,i,-1.3&-0.4,2.3&9.5,5.0&5.4,-0.8&-0.1
O=[N+]([O-])c1ccc(N2CCN(Cc3ccccc3)CC2)c2c1no[n+]2[O-],i,6.2,-4.0,-17.9,-4.0
NCC[C@H]1CC[C@H](NC(=O)CCN2CCCCC2)[C@@H](CO)O1,i,27.9*,0.3,4.0,-2.5
C[C@H]1CCCCO[C@H](CN(C)C(=O)Nc2ccc3c(c2)OCO3)[C@@H](C)CN([C@@H](C)CO)C(=O)c2cc(NS(C)(=O)=O)ccc2O1,i,3.2,-1.9,-8.5,1.3
C[C@@H]1CCCCO[C@H](CN(C)C(=O)Cc2ccccc2)[C@H](C)CN([C@@H](C)CO)C(=O)c2cc(NC(=O)Nc3cccc4ccccc34)ccc2O1,i,-1.4,-0.1,-1.2,1.0
CN(C)S(=O)(=O)c1cccc(COC(=O)CCNC(=O)c2ccc([N+](=O)[O-])cc2)c1,i,6.8,5.2,21.1,1.6

# Compound activity as filed in PubChem.

# A portion of the library; the hit share may differ from the screen's.
